KCNQ2 inh: KCNQ2 potassium channel inhibitors, primary screen, cell-based, CHO-K1, FluxOR thallium flux, B-score (AID 2156); Potassium voltage-gated channel subfamily KQT member 2 (Rattus norvegicus), O88943; 20 min; stronger effect = lower value; only compounds with negative scores are shown here; some inactives read as strong as hits; B-score at 10 µM; 310,000 tested, 1.1% active;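 active = fluorescence ratio B-score at most minus 3 library SDs, with starting brightness B-score within 2 library SDs, cut at about -5.5 in these data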
Target sequence (O88943 whole entry, looked up): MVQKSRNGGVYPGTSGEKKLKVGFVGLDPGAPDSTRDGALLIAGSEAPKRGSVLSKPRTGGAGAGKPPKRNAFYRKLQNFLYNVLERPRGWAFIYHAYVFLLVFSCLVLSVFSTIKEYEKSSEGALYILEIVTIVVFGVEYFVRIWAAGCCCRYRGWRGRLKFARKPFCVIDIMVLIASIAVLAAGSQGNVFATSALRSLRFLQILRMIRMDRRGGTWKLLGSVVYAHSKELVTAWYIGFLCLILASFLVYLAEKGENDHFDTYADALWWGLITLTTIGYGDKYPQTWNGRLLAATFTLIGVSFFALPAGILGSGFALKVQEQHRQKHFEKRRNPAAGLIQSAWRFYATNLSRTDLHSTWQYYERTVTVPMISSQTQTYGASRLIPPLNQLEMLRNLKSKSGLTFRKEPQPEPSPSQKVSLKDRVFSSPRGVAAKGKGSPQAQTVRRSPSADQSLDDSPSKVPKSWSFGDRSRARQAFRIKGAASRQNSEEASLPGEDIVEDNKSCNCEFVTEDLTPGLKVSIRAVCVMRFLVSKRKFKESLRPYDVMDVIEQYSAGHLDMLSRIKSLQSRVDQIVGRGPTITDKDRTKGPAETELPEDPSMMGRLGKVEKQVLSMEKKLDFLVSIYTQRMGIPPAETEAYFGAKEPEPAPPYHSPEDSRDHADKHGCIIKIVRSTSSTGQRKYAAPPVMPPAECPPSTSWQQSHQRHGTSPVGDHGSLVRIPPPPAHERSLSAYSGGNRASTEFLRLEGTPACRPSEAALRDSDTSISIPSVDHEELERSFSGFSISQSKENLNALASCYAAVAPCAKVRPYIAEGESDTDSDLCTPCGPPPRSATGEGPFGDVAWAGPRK
KCNQ2 inh baseline: further read-out of KCNQ2 inh, marked with its call; B-score; measured here: initial fluorescence intensity artifact check;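 brightness before thallium and not channel activity; 0 = typical well and far values either way flag optical interference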
* = called active by the depositor; i = inactive.

molecule	KCNQ2 inh baseline	KCNQ2 inh
O=C(N/N=C/c1coc2ccc(Cl)cc2c1=O)c1ccc(O)cc1	-0.11	i
COC(=O)c1scc(S(=O)(=O)C(C)(C)C)c1-n1cccc1	-0.66	i
COc1ccc2oc(C(=O)OCC(=O)N3CCN(S(=O)(=O)c4ccccc4)CC3)c(C)c2c1	-1.77	i
O=[N+]([O-])c1cc(Cl)ccc1NCCNc1ncc(C(F)(F)F)cc1Cl	0.04	i
CCOc1nc(C)ccc1-c1noc(-c2ccccc2OC)n1	-0.75	i
CC(C)NC(=O)[C@H](CSCc1ccccc1)N1Cc2ccccc2C1=O	2.03	i
CCOC(=O)/C(=N/Nc1ccc(Cl)cc1)S(=O)(=O)c1ccc(Cl)cc1	0.89	i
Cc1ccc(O)c(NC(=O)/C=C/C(=O)O)c1	-0.68	i
Cc1ccc(S(=O)(=O)N(CC(=O)NC2CC2)c2ccc(C)c(Cl)c2)cc1	0.87	i
CSc1ncccc1C(=O)NNc1cc(Cl)ccc1Cl	1.86	i
Cc1cc(/C=C2\SC(=S)N(Cc3ccco3)C2=O)c(C)n1-c1ccccc1	1.28	i
N#CCCN(Cc1cccs1)C(=O)c1ccc(Cl)cc1	0.84	i
COc1cc(Cl)ccc1S(=O)(=O)n1nc(C)cc1C	1.04	i
CCc1nc2c(cnn2-c2ccc(Cl)cc2)c(=O)n1-c1ccc(OC)cc1	-0.08	i
COC(=O)c1c(C(=O)OC)c(-c2ccc(C(C)(C)C)cc2)n2c1CS(=O)C2 (configuration not stated)	0.1*	-7.98*
Cc1ccc(-n2nnc(-c3cc4ccccc4nc3Cl)n2)cc1	0.5	i
CCOC(=O)c1sc(NC(=O)c2cccc(S(=O)(=O)N3c4ccccc4CC3C)c2)cc1C (configuration not stated)	0.37	i
Cc1[nH][nH]c(=O)c1C(c1ccc(N(C)C)c(Br)c1)c1c(C)[nH][nH]c1=O	1.11	i
COCCN(Cc1cc2cc(C)ccc2nc1Cl)C(=O)Nc1ccccc1OC	-0.21	i
c1ccc(-n2nnnc2SCc2ccccn2)cc1	-1.61	i
COc1ccc(CCNc2oc(COc3ccccc3F)nc2C#N)cc1	-1.06	i
O=C1Oc2ccccc2C(=O)/C1=C/N1CCN(c2ccccc2F)CC1	-1.48	i
NC(=O)CSCc1c(Cl)cccc1Cl	2.09	i
O=C(NNc1nc2c(F)cccc2s1)C1COc2ccccc2O1 (configuration not stated)	1.69	i
O=C(NNc1ccccc1)C(=O)NNS(=O)(=O)c1ccc(CCCl)cc1	0.39	i
COc1ccc(CCC(=O)N2CCN(c3cccc(C)c3C)CC2)cc1	-1.95	i
COc1cc(/C=N\Nc2nc(-c3cccs3)c(NC(C)=O)s2)ccc1O	0.48	i
CCN(CC)S(=O)(=O)c1ccc(NC(=O)COC(=O)c2cnc(C)cn2)cc1	-0.94	i
COC(=O)c1ccccc1NC(=O)c1cccc(NC(=O)c2ccc(Br)o2)c1C	-0.29	i
CCOC(=O)C1=C(O)/C(=C/c2ccc(OCC(=O)O)c(OC)c2)SC1=Nc1ccc(OC)cc1	-2.45	i
CC(=O)N1CCSc2ccc(S(=O)(=O)NCCc3ccc(C)cc3)cc21	-0.68	i
CCOc1ccc(N(CC(=O)NN=C2CCCC2)S(C)(=O)=O)cc1	0.7	i
CCC(=O)OCC(=O)c1cc(C)n(-c2ccc(Br)cc2)c1C	-0.03	i
Cc1cc(C)c2sc(N(CCCN(C)C)C(=O)c3ccc(Br)s3)nc2c1	0.06	i
Cc1ccc(C)c(NC(=O)CSc2nnc(-c3ccccc3)o2)c1	1.51	i
CCOC(=O)c1cc(C(C)(C)C)oc1CNC(=O)c1c(C)oc2c1CCCC2	-0.04*	-6.07*
Cc1ccc(C(=S)NCS(=O)(=O)c2ccc(C)cc2)cc1	-0.28	i
N#Cc1ccc(/C=C/C(=O)c2cccnc2)cc1	2.48*	-10.6*
CCC(CC)c1nnc(NC(=O)C2=NNC(=O)CC2)s1	-0.59	i
CC(=O)Nc1ccc(OS(=O)(=O)c2ccc([N+](=O)[O-])cc2)cc1	0.01	i
Cc1c(O)ccc2c(CC(=O)N[C@@H](Cc3ccccc3)C(=O)O)cc(=O)oc12	1.01	i
CC(O)CNc1cc(N)c([N+](=O)[O-])cc1[N+](=O)[O-] (configuration not stated)	0.06	i
CCOCCCn1c(SCC(=O)NC2CCCC2)nc2ccccc2c1=O	-0.26	i
O=C(O)c1cnn(-c2ccccc2)c1-n1cccc1	1.28	i
Cc1cc(C)c2c(CN3CCC(C)CC3)cc(=O)oc2c1	-0.2	i
CCN(CC(O)c1cccc(O)c1)C(=O)C12CC3CC(CC(C3)C1)C2 (configuration not stated)	0.6	i
COCCCNC(=O)C1CCC(CNS(=O)(=O)c2ccc(OC)cc2)CC1 (configuration not stated)	3.36	i
Cc1ccc(C2(C)NC(=O)N(CC(=O)Nc3ccc(Cl)c(S(=O)(=O)N4CCCCC4)c3)C2=O)cc1 (configuration not stated)	0.85	i
COC(C(=O)NCc1ccccc1C)c1ccccc1 (configuration not stated)	0.18	i
CN(C)S(=O)(=O)c1ccc2c(c1)nc(CCC(=O)NCc1ccc(Cl)cc1)n2C	0.37	i
CS(=O)(=O)N1CCC(C(=O)Nc2cccc(Cl)c2Cl)CC1	0.86	i
O=C(CN1C(=O)C2C3C=CC(C4CC34)C2C1=O)Nc1cnc2ccccc2c1 (configuration not stated)	0.41	i
O=C(O)/C=C\C(=O)Nc1ccc(F)c(F)c1F	-0.88	i
CC1(C(=O)NCc2ccccc2)Oc2ccccc2NC1=O (configuration not stated)	0.01	i
Cn1c(CO)cnc1SCc1c(Cl)cccc1Cl	-1.66	i
Cn1c2ccccc2c(=O)c2ccc(C#CC3(N)CCCCC3)cc21	-2.62*	-7.31*

Further records:
molecule	KCNQ2 inh baseline	KCNQ2 inh
Cc1ccc(CNc2nc(-c3cccnc3)nc3ccccc23)cc1	-0.67	i
CC(C)c1nnc(N2C(=O)c3oc4ccccc4c(=O)c3C2c2ccco2)s1 (configuration not stated)	1.37	i
NC(=O)c1ccc[n+](CC(=O)c2ccccc2)c1	-0.02	i
COC(=O)c1c(C)[nH]c(C)c1-c1ccc([N+](=O)[O-])cc1	2.24	i
O=C(NN=C1CCCC1)c1ccccc1OCc1ccc(Cl)cc1	2.01	i
CSc1nc2[nH]ncc2c(=O)n1-c1ccccc1	0.94	i
CCCCN(CCCC)S(=O)(=O)c1ccc(NS(=O)(=O)c2ccc(NC(C)=O)cc2)cc1	-0.6	i
O=C(OCC#Cc1c(COC(=O)c2ccccc2)nnn1Cc1ccccc1)c1ccccc1	-1.89	i
Cc1ccc(S(=O)(=O)NC(=O)Nc2cc(C)ccc2F)cc1	0.27	i
CS(=O)(=O)c1ccc2c(c1)sc1nc(=O)c(/C=C3/C=CC(=O)C(O)=C3)c(N)n12	4.77	i
COc1ccc(CN(CC(=O)NCc2ccc(F)cc2)C(=O)CCC(=O)Nc2nccs2)cc1	-0.62	i
O=C(Nc1ccccc1-c1nc2ccccc2s1)c1cccnc1Cl	0.68	i
CN1C(=O)N(c2ccccc2)C(Nc2nncs2)C1(C)C (configuration not stated)	-0.12	i
Cc1ccc(C(=O)OC(C)C(=O)c2cc(C)c(C)cc2C)o1 (configuration not stated)	0.22	i
COc1cc2c(cc1OC)C(c1cc(Br)c(OC)c(OC)c1)CC(=O)N2 (configuration not stated)	2.24	i
COc1ccc(/C=N/Nc2nc(N3CCCC3)nc(N3CCCC3)n2)cc1	-0.05	i
CCn1c(COc2ccccc2OC)nc2ccccc21	1.28	i
COc1ccc(NC(=O)c2ccco2)c(NC(=O)Cc2cccs2)c1	0.95	i
c1ccc(C(c2ccccc2)c2noc(CN3CCC(c4ccncc4)CC3)n2)cc1	-1.97	i
CCOc1ccc(/C(O)=C2/C(=O)C(=O)N(CC3CCCO3)C2c2cccs2)cc1 (configuration not stated)	2.35	i
COc1ccc(N2CCN(C(=O)COc3cccc4ccccc34)CC2)cc1	-0.58	i
CCOc1ccc(N=Cc2c(C)[nH]n(-c3nc4ccccc4[nH]3)c2=O)cc1	0.22	i
O=C(NCc1ccccc1)c1ccccc1-c1nc2ccccc2[nH]1	0.03	i
COC(=O)CNC(=O)CSc1nc2sc(-c3ccccc3)cc2c(=O)n1-c1ccccc1	-1.76	i
CC1=Nc2cc(C(=O)NCCN3CCOCC3)ccc2Sc2c(C)ccc(C)c21	1.55	i
COc1ccc(/C=N/NC(=O)c2ccco2)cc1Cn1nc(C)c([N+](=O)[O-])c1C	-2	i
COc1ccc(N2CCN(C(=O)COc3ccccc3)CC2)cc1	1.1	i
O=C(NCCCn1ccnc1)c1nc(Cn2cc([N+](=O)[O-])cn2)no1	-0.03	i
N#Cc1nc(COc2ccc(-c3ccccc3)cc2)oc1NCc1cccnc1	-0.03	i
Cc1ccc(N2C(=O)CSC2=S)cc1C	-0.78	i
O=C(NCC1CCCCC1)C1(CC2CC(c3ccc(Cl)cc3)=NO2)CCNCC1 (configuration not stated)	-0.09	i
N#CC1=C(N)Oc2cc(O)ccc2C1c1ccccc1 (configuration not stated)	0.66	i
O=C(NC1CCCCC1)C(c1ccccc1)N1CCCC1 (configuration not stated)	-0.61	i
O=C(O)CC(CC(=O)N1CCN(C(=O)c2ccco2)CC1)c1ccccc1 (configuration not stated)	-2.02	i
CCN(CC)S(=O)(=O)c1cc(NC(=O)CN2CCN(c3ccccn3)CC2)ccc1C	-0.32	i
COc1ccc(N2CCN(S(=O)(=O)c3ccc4c(c3)CCCC4)CC2)c([N+](=O)[O-])c1	-0.93	i
CCN1CCN(c2cc(N3CCN(C(=O)c4ccco4)CC3)c3c4c(onc24)-c2ccccc2C3=O)CC1	-0.73	i
C/C(=N\NC(=O)c1cc2c(s1)CCC(C)C2)c1ccncc1 (configuration not stated)	-1.35	i
Cc1cc(NC(=O)C2C3C(=O)N(CC4CCCO4)C(C(=O)NC(C)(C)C)C34C=CC2(C)O4)no1 (configuration not stated)	-0.12	i
CC12CCC(=O)N1C(C(=O)Nc1cccc3ccccc13)CS2 (configuration not stated)	-0.63	i

In another format: entries from further up
Cc1cc(NC(=O)C2C3C(=O)N(CC4CCCO4)C(C(=O)NC(C)(C)C)C34C=CC2(C)O4)no1 (configuration not stated)
  KCNQ2 inh baseline = -0.12
  KCNQ2 inh = i
CCN1CCN(c2cc(N3CCN(C(=O)c4ccco4)CC3)c3c4c(onc24)-c2ccccc2C3=O)CC1
  KCNQ2 inh baseline = -0.73
  KCNQ2 inh = i
CC12CCC(=O)N1C(C(=O)Nc1cccc3ccccc13)CS2 (configuration not stated)
  KCNQ2 inh baseline = -0.63
  KCNQ2 inh = i

A second format for some results above.
Each structure is followed by: KCNQ2 inh baseline	KCNQ2 inh
> CCOCCCn1c(SCC(=O)NC2CCCC2)nc2ccccc2c1=O
    -0.26	i
> O=C(O)c1cnn(-c2ccccc2)c1-n1cccc1
    1.28	i

Next results follow:
molecule	KCNQ2 inh baseline	KCNQ2 inh
COc1ccccc1-n1cnc2cc(NCc3cccs3)ccc21	-2.77	i
O=C(Nc1ncn[nH]1)c1ccccc1O	-0.04	i
O=C(CSCC(=O)c1ccccc1)Nc1ccccc1Cl	-0.76	i
OC[C@@H]1CCCN1Cc1nc(-c2cccs2)no1	0.05	i
COc1ccc(C(=O)N/N=C/c2sc3ccccc3c2O)cc1	2.81	i
CC(C)CN(C(=O)COC(=O)C12CC3CC(CC(Cl)(C3)C1)C2)c1c(N)n(Cc2ccccc2)c(=O)[nH]c1=O	-0.02	i
Cc1c(-n2c(SCC(C)C)nc3ccccc3c2=O)c(=O)n(-c2ccccc2)n1C	-1.92	i
CCc1cc(=O)oc2cc(C)cc(OCC(=O)N3CCC(C(=O)NC(C)C)(c4ccccc4)CC3)c12	0.11	i
CCOc1ccc(NS(=O)(=O)c2ccc(NC(=S)NC(=O)CC(C)C)cc2)cc1	-0.7	i
CC(C)(C)c1ccc(OCCCCCCN2CCNCC2)cc1	0.82	i
Cc1ccc(CNC(=O)C2CCC(=O)N(Cc3ccc(Cl)cc3)C2)cc1F (configuration not stated)	-0.39	i
COC(=O)c1nnn(-c2cc(Cl)cc(Cl)c2)c1C(=O)OC	2.36	i
Clc1ccc(OCCn2ccnc2)cc1Cl	1.88	i
CCOC(=O)C1=C(C)N(c2ccc(C)c(C)c2)C(=O)/C1=C\c1ccco1	-0.57	i
COc1ccc(OCCCC(=O)Nc2ccc3c(c2)OCCO3)cc1	0.5	i
CN(C)S(=O)(=O)c1ccc(N2CCCC2)c(C(=O)Nc2nc3ccccc3s2)c1	-0.19	i
O=C(NCc1ccc(F)cc1)c1ccc2c(c1)S(=O)(=O)c1ccccc1C2=O	-1.22	i
COc1ccc(C(=O)c2sc3nc(C)cc(-c4cccs4)c3c2N)cc1OC	1.85	i
CC(C)NC(=O)c1ccc(-n2c(=S)[nH]c3ccccc3c2=O)cc1	-0.14	i
CC1CCCCC1NC(=O)CO/N=C/c1ccc(OC(F)F)cc1 (configuration not stated)	0.01	i
CCCCN1C(=O)C2C3C=CC(C2C1=O)C1C2C(=O)N(CCCC)C(=O)C2C31 (configuration not stated)	0.66	i
COC(=O)CCCNC(=O)CC1C(=O)NCCN1Cc1ccoc1 (configuration not stated)	0.57	i

Screens: PubChem, Johns Hopkins Ion Channel Center

The list is partial, so the mix of outcomes need not match the whole.
